Screening data deposited in PubChem BioAssay by Broad Institute.
A1 apoptosis 2 = A1 inhibitors via caspase activation, primary screen, cell-based, luminescence, HTS, two replicates; MEF A1-2A-BIM cells, caspase-Glo luminescence, 3 h; percent of clofoctol response, DMSO zero; caspase activation, % (no concentration beside the values); 24,000 tested, under 10 active; in the data active = caspase activation above about 5.9%;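 also: wells of about 30 µL received 50 nL stock; the first replicate is given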
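Test system – A1-2A-BIM-expressing MEF cells · Input – 2500 cells/well · Medium – RPMI-1640 growth medium with 10% FBS · Compound dosing – 50 nL pinned compound · Timing – 3 h compound exposure at 37 °C · Technique – Caspase-Glo luminescence (DEVD substrate) · Evaluation – Caspase-3/7 activity from luminescence increase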
Numbers without * were called inactive. A portion of the library, so the mix of outcomes need not match the whole.

SMILES | A1 apoptosis 2
C[C@@H]1CCCCO[C@H](CN(C)S(=O)(=O)c2ccc(F)cc2)[C@@H](C)CN([C@@H](C)CO)C(=O)c2cc(NC(=O)CCCN(C)C)ccc2O1 | 0.0
Cc1noc(C)c1NC(=O)N(C)C[C@H]1Oc2ccc(NS(=O)(=O)c3ccc(Cl)cc3)cc2CC(=O)N([C@H](C)CO)C[C@H]1C | -1.2
Cc1noc(C)c1NC(=O)N(C)C[C@H]1Oc2ccc(NC(=O)CCCCCC(=O)Nc3ccccc3N)cc2CC(=O)N([C@@H](C)CO)C[C@@H]1C | 1.1
C[C@@H]1CN([C@H](C)CO)C(=O)Cc2cc(NC(=O)Nc3cccc4ccccc34)ccc2O[C@@H]1CN(C)S(=O)(=O)c1cn(C)cn1 | 0.7
C=CC[C@]1(C(=O)N2CCCCC2)N=C(c2ccc(OCCCO)cc2)O[C@H]1c1ccccc1 | 0.0
C[C@@H]1CN([C@H](C)CO)C(=O)c2cc(NC(=O)CCC(F)(F)F)ccc2O[C@@H](C)CCCCO[C@H]1CN(C)Cc1ccccc1 | 1.9
COC(=O)CCCCCCC(=O)N/N=C/CCC1CCCCC1 | 1.2
COc1ccc(S(=O)(=O)N(C)C[C@H]2OCCCC[C@@H](C)Oc3ccc(N(C)C)cc3C(=O)N([C@@H](C)CO)C[C@H]2C)cc1 | -0.4
COc1ccc(S(=O)(=O)N(C)C[C@@H]2Oc3ccc(NC(=O)NC4CCCCC4)cc3CC(=O)N([C@@H](C)CO)C[C@H]2C)cc1 | 1.0
COc1ccc(NC(=O)N(C)C[C@@H]2Oc3c(NS(=O)(=O)c4ccc(Cl)cc4)cccc3C(=O)N([C@H](C)CO)C[C@H]2C)cc1 | 0.7
CC(C)NC(=O)Nc1ccc2c(c1)C(=O)N([C@H](C)CO)C[C@H](C)[C@H](CN(C)Cc1ccccc1)OCCCC[C@H](C)O2 | 0.1
Cc1noc(C)c1S(=O)(=O)Nc1ccc2c(c1)CC(=O)N([C@@H](C)CO)C[C@H](C)[C@@H](CN(C)C(=O)Nc1cccc3ccccc13)O2 | -0.5
C[C@@H]1CN([C@@H](C)CO)C(=O)c2cc(NS(=O)(=O)c3ccc(Cl)cc3)ccc2O[C@@H]1CN(C)Cc1ccc(-c2ccccc2)cc1 | 0.5
C[C@@H]1CN([C@H](C)CO)C(=O)c2cccc(NC(=O)Nc3ccc(C(F)(F)F)cc3)c2O[C@H]1CN(C)C(=O)Nc1ccc(F)cc1 | -0.1
C[C@H]1CN([C@@H](C)CO)C(=O)Cc2cc(NC(=O)Nc3ccc4c(c3)OCO4)ccc2O[C@@H]1CN(C)Cc1ccc(C(=O)O)cc1 | 0.0
C[C@@H]1CN([C@H](C)CO)C(=O)c2cc(NC(=O)C3CC3)ccc2O[C@H]1CN(C)C(=O)Nc1cccc2ccccc12 | 0.9
C[C@@H]1CN([C@H](C)CO)C(=O)c2cc(NS(=O)(=O)c3ccc(F)cc3)ccc2O[C@H]1CN(C)S(=O)(=O)c1ccc(Cl)cc1 | 1.4
C[C@@H]1CN([C@H](C)CO)C(=O)Cc2cc(NS(=O)(=O)c3ccc(F)cc3)ccc2O[C@H]1CN(C)C(=O)Nc1ccc2c(c1)OCO2 | 0.1
C[C@@H]1CN([C@@H](C)CO)C(=O)c2cc(NS(=O)(=O)c3cn(C)cn3)ccc2O[C@@H]1CN(C)Cc1ccc(Oc2ccccc2)cc1 | -0.6
C[C@@H]1CN([C@H](C)CO)C(=O)c2cc(NC(=O)NC3CCCCC3)ccc2O[C@@H](C)CCCCO[C@H]1CN(C)Cc1ccc(C(=O)O)cc1 | -0.5
C[C@@H]1CN([C@@H](C)CO)C(=O)c2cc(NC(=O)Nc3ccc(C(F)(F)F)cc3)ccc2O[C@@H]1CN(C)C(=O)Nc1cccc2ccccc12 | -0.7
C[C@H](CO)N1C[C@H](C)[C@@H](CN(C)C(=O)Nc2ccc3c(c2)OCO3)Oc2c(NC(=O)Nc3cccc4ccccc34)cccc2C1=O | -0.5
Cc1noc(C)c1NC(=O)N(C)C[C@@H]1OCCCC[C@@H](C)Oc2ccc(NS(=O)(=O)c3cccs3)cc2C(=O)N([C@H](C)CO)C[C@H]1C | -0.1
C[C@H](CO)N1C[C@H](C)[C@@H](CN(C)C(=O)NC2CCCCC2)Oc2ccc(NS(C)(=O)=O)cc2C1=O | 0.9
Cc1noc(C)c1S(=O)(=O)Nc1ccc2c(c1)C(=O)N([C@H](C)CO)C[C@H](C)[C@H](CN(C)Cc1ccc(C(F)(F)F)cc1)OCCCC[C@@H](C)O2 | -0.4
CC(C)NC(=O)Nc1ccc2c(c1)C(=O)N([C@@H](C)CO)C[C@@H](C)[C@@H](CN(C)S(=O)(=O)c1ccccc1)OCCCC[C@H](C)O2 | 0.7
C[C@@H]1CN([C@@H](C)CO)C(=O)c2cc(NC(=O)Cc3ccccc3)ccc2O[C@@H]1CN(C)S(C)(=O)=O | -0.1
C[C@@H]1CN([C@@H](C)CO)C(=O)c2cc(NC(=O)CCCN(C)C)ccc2O[C@@H]1CN(C)CC1CCCCC1 | -0.4
C[C@H](CO)N1C[C@H](C)[C@@H](CN(C)C(=O)Nc2ccc(C(F)(F)F)cc2)OCCCC[C@H](C)Oc2ccc(N(C)C)cc2C1=O | 0.0
Cc1noc(C)c1NC(=O)N(C)C[C@@H]1Oc2ccc(NC(=O)CCN3CCOCC3)cc2C(=O)N([C@H](C)CO)C[C@@H]1C | -0.2
C[C@H](CO)N1C[C@H](C)[C@H](CN(C)S(=O)(=O)c2ccc(Cl)cc2)Oc2ccc(NC(=O)NC3CCCCC3)cc2C1=O | -1.8
C[C@H](CO)N1C[C@H](C)[C@@H](CN(C)CC2CC2)Oc2ccc(NC(=O)CCCCCC(=O)Nc3ccccc3N)cc2CC1=O | 1.1
Cc1noc(C)c1S(=O)(=O)Nc1ccc2c(c1)C(=O)N([C@@H](C)CO)C[C@H](C)[C@@H](CN(C)C(=O)NC1CCCCC1)O2 | 0.9
C[C@@H]1CN([C@@H](C)CO)C(=O)Cc2cc(NC(=O)Nc3ccc4c(c3)OCO4)ccc2O[C@@H]1CN(C)C(=O)Nc1ccc2c(c1)OCO2 | -0.8
CC(C)(C)[C@@H]1C=C(C(=O)N2CCCCCCC2)O[C@H](OCCCCO)C1 | 0.5
Cc1ccc(S(=O)(=O)Nc2ccc3c(c2)C(=O)N([C@H](C)CO)C[C@H](C)[C@@H](CN(C)CC2CC2)OCCCC[C@@H](C)O3)cc1 | 0.6
C=CCNC(=O)[C@H]1[C@@H]2C(=O)O[C@@H](c3ccccc3)[C@@H](c3ccccc3)N2[C@@H](c2ccc(OCCO)cc2)[C@]12C(=O)N(C(=O)OCCOC)c1ccc(C#CC3(O)CCCCCC3)cc12 | 0.5
C[C@@H]1CN([C@@H](C)CO)C(=O)c2cc(NS(=O)(=O)c3cn(C)cn3)ccc2O[C@@H](C)CCCCO[C@H]1CN(C)C(=O)CCC(F)(F)F | -0.4
Cc1ccc(S(=O)(=O)N(C)C[C@@H]2OCCCC[C@@H](C)Oc3ccc(NC(=O)c4ccccc4)cc3C(=O)N([C@@H](C)CO)C[C@@H]2C)cc1 | -1.0
COc1ccc(NC(=O)N(C)C[C@@H]2Oc3ccc(NC(=O)Nc4ccc(F)cc4)cc3CC(=O)N([C@@H](C)CO)C[C@@H]2C)cc1 | 0.1
C[C@@H]1CN([C@@H](C)CO)C(=O)CCCn2cc(nn2)CO[C@H]1CN(C)C(=O)Oc1ccccc1 | 0.2
COc1ccc(S(=O)(=O)Nc2cccc3c2O[C@@H](CN(C)Cc2ccccc2)[C@@H](C)CN([C@H](C)CO)C3=O)cc1 | 1.0
O=C(O)C1=C[C@H](c2csc3ccccc23)C[C@H](OCc2ccc(CO)cc2)O1 | 0.2
C[C@@H]1CN([C@@H](C)CO)C(=O)Cc2cc(NS(=O)(=O)c3cccs3)ccc2O[C@H]1CN(C)CC1CCCCC1 | 1.5
C[C@H](CO)N1C[C@H](C)[C@H](CN(C)S(=O)(=O)c2cccs2)Oc2ccc(NS(=O)(=O)c3ccccc3)cc2CC1=O | -1.1
CNC[C@H]1OCCCC[C@H](C)Oc2ccc(NS(=O)(=O)c3ccc(C)cc3)cc2C(=O)N([C@@H](C)CO)C[C@H]1C | 0.7
C[C@H](CO)N1C[C@H](C)[C@H](CN(C)CC2CCCCC2)Oc2c(NC(=O)C3CCCCC3)cccc2C1=O | -0.9
C[C@@H]1CN([C@@H](C)CO)C(=O)c2cc(NC(=O)CCC(F)(F)F)ccc2O[C@@H](C)CCCCO[C@@H]1CN(C)Cc1ccc(C(F)(F)F)cc1 | 0.9
C[C@H](CO)N1C[C@H](C)[C@@H](CN(C)Cc2ccncc2)Oc2ccc(NS(C)(=O)=O)cc2C1=O | -0.6
Cc1noc(C)c1NC(=O)N(C)C[C@@H]1Oc2ccc(NC(=O)CCN3CCOCC3)cc2CC(=O)N([C@@H](C)CO)C[C@H]1C | 0.0
CC(C)NC(=O)N(C)C[C@@H]1Oc2ccc(NS(C)(=O)=O)cc2C(=O)N([C@H](C)CO)C[C@@H]1C | 0.3
C[C@@H]1CCCCO[C@@H](CN(C)S(=O)(=O)c2cccs2)[C@@H](C)CN([C@H](C)CO)C(=O)c2cc(NS(C)(=O)=O)ccc2O1 | -1.1
CC(C)NC(=O)N(C)C[C@H]1Oc2ccc(NC(=O)CCCN(C)C)cc2C(=O)N([C@H](C)CO)C[C@H]1C | 1.0
C[C@H](CO)N1C[C@H](C)[C@@H](CN(C)Cc2ccc(-c3ccccc3)cc2)Oc2ccc(NS(=O)(=O)c3cccs3)cc2C1=O | -0.4
C[C@@H]1CN([C@H](C)CO)C(=O)c2cccc(NC(=O)c3nc4ccccc4s3)c2O[C@H]1CN(C)C(=O)Nc1ccc(F)cc1 | 0.3
CC(C)NC(=O)N(C)C[C@H]1OCCCC[C@@H](C)Oc2ccc(NC(=O)Cc3ccccc3)cc2C(=O)N([C@@H](C)CO)C[C@H]1C | 1.2
C[C@@H]1CCCCO[C@@H](CN(C)C(=O)Nc2ccc(C(F)(F)F)cc2)[C@H](C)CN([C@H](C)CO)C(=O)c2cc(NS(=O)(=O)c3cccs3)ccc2O1 | -0.2
C[C@H]1CN([C@@H](C)CO)C(=O)CCCn2nncc2CO[C@@H]1CN(C)Cc1cccc2c1OCCCO2 | 1.1
Cc1noc(C)c1NC(=O)N(C)C[C@H]1Oc2c(NC(=O)C3CC3)cccc2C(=O)N([C@@H](C)CO)C[C@H]1C | -0.3
C[C@@H]1CN([C@@H](C)CO)C(=O)c2cccc(NC(=O)Nc3ccccc3)c2O[C@H]1CN(C)CC1CC1 | 0.1

Another view of part of the listing above.
mol	A1 apoptosis 2
C[C@@H]1CN([C@@H](C)CO)C(=O)c2cc(NC(=O)CCC(F)(F)F)ccc2O[C@@H](C)CCCCO[C@@H]1CN(C)Cc1ccc(C(F)(F)F)cc1	0.9
C[C@H](CO)N1C[C@H](C)[C@@H](CN(C)Cc2ccncc2)Oc2ccc(NS(C)(=O)=O)cc2C1=O	-0.6
Cc1noc(C)c1NC(=O)N(C)C[C@@H]1Oc2ccc(NC(=O)CCN3CCOCC3)cc2CC(=O)N([C@@H](C)CO)C[C@H]1C	0.0
CC(C)NC(=O)N(C)C[C@@H]1Oc2ccc(NS(C)(=O)=O)cc2C(=O)N([C@H](C)CO)C[C@@H]1C	0.3
C[C@@H]1CCCCO[C@@H](CN(C)S(=O)(=O)c2cccs2)[C@@H](C)CN([C@H](C)CO)C(=O)c2cc(NS(C)(=O)=O)ccc2O1	-1.1
CC(C)NC(=O)N(C)C[C@H]1Oc2ccc(NC(=O)CCCN(C)C)cc2C(=O)N([C@H](C)CO)C[C@H]1C	1.0
C[C@H](CO)N1C[C@H](C)[C@@H](CN(C)Cc2ccc(-c3ccccc3)cc2)Oc2ccc(NS(=O)(=O)c3cccs3)cc2C1=O	-0.4
C[C@@H]1CN([C@H](C)CO)C(=O)c2cccc(NC(=O)c3nc4ccccc4s3)c2O[C@H]1CN(C)C(=O)Nc1ccc(F)cc1	0.3
CC(C)NC(=O)N(C)C[C@H]1OCCCC[C@@H](C)Oc2ccc(NC(=O)Cc3ccccc3)cc2C(=O)N([C@@H](C)CO)C[C@H]1C	1.2
C[C@@H]1CCCCO[C@@H](CN(C)C(=O)Nc2ccc(C(F)(F)F)cc2)[C@H](C)CN([C@H](C)CO)C(=O)c2cc(NS(=O)(=O)c3cccs3)ccc2O1	-0.2

Additional results.
SMILES | A1 apoptosis 2
C[C@H]1CN([C@@H](C)CO)C(=O)c2cc(NS(=O)(=O)c3ccc(Cl)cc3)ccc2O[C@H]1CN(C)Cc1ccc2c(c1)OCO2 | -1.5
CC(C)NC(=O)Nc1ccc2c(c1)C(=O)N([C@@H](C)CO)C[C@H](C)[C@H](CN(C)S(=O)(=O)c1ccc(F)cc1)OCCCC[C@H](C)O2 | 0.3
C[C@@H]1CN([C@@H](C)CO)C(=O)Cc2cc(NC(=O)Nc3cccc4ccccc34)ccc2O[C@@H]1CN(C)Cc1ccc(C(=O)Nc2ccccc2N)cc1 | 1.4
C[C@H]1CN([C@@H](C)CO)C(=O)c2cccc(NC(=O)Nc3ccc(C(F)(F)F)cc3)c2O[C@H]1CN(C)CC1CC1 | -0.9
Cc1noc(C)c1NC(=O)N(C)C[C@@H]1Oc2ccc(NS(=O)(=O)c3cccs3)cc2C(=O)N([C@@H](C)CO)C[C@H]1C | 0.3
CNC[C@H]1Oc2c(NC(=O)Nc3ccc(F)cc3)cccc2C(=O)N([C@@H](C)CO)C[C@H]1C | -1.6
COc1ccc(S(=O)(=O)N(C)C[C@H]2Oc3ccc(NC(=O)Nc4cccc5ccccc45)cc3CC(=O)N([C@H](C)CO)C[C@@H]2C)cc1 | 2.1
COc1ccc(S(=O)(=O)Nc2ccc3c(c2)C(=O)N([C@H](C)CO)C[C@H](C)[C@@H](CN(C)Cc2ccncc2)O3)cc1 | 0.0
COc1ccc(S(=O)(=O)Nc2ccc3c(c2)C(=O)N([C@H](C)CO)C[C@@H](C)[C@H](CN(C)Cc2ccc(C(=O)Nc4ccccc4N)cc2)O3)cc1 | 1.7
